Cruzain noTriton – cruzain (T. cruzi) inhibition without detergent | P25779 | purified cruzain, Z-FR-AMC fluorescence, no detergent | Potency, µM, inactives show max response, negative = inhibition, most hits filed as inhibitors | 200,000 tested, 2.3% active | AID 1476;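 also: plate controls were enzyme without inhibitor for no effect and buffer without enzyme for full effect; nearly all actives have a fitted effect of over 40% in size; top concentration of the series not given in the record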
Target sequence (P25779 123-467 limits assumed): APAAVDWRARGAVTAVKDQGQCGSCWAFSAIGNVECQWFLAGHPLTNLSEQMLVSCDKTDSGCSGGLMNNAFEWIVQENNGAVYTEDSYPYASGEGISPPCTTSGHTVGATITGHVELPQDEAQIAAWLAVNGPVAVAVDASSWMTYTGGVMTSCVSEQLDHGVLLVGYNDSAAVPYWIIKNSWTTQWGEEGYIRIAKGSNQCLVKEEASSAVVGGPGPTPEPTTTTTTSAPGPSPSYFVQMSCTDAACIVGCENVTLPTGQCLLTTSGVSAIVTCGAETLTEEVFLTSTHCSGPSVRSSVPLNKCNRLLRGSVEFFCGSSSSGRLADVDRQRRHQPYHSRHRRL
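Detergent-free condition (0.00005% Triton X-100) in acetate buffer pH 5.5 with DTT. 1.5 nM enzyme and compound were pre-mixed 15 min, then 2 uM Z-FR-AMC substrate added; reaction progress from fluorescence change between first and third reads (60 s).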
Cruzain inh Det – blocks cruzain activity in presence of Triton detergent; P25779; purified cruzain, Z-FR-AMC fluorescence, 0.01% Triton; Potency, µM, without a hit: max response, negative = inhibition, most hits filed as inhibitors; 200,000 tested, 0.43% active;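 also: plate controls were neutral wells for no effect and buffer without enzyme for full effect; nearly all actives have a fitted effect of over 40% in size; top concentration of the series not given in the record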
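Read-out: AMC fluorescence (360 nm excitation, 450 nm emission), four reads over 2 min, first-to-third difference used. Conditions: cruzain 1.5 nM, Z-FR-AMC 2 uM, pH 5.5 acetate, 5 mM DTT, 0.01% Triton X-100.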
Lassa entry inh – inhibitors of Lassa virus binding or cell entry; 300,000 tested, 1.2% active; Lassa virus pseudotype entry inhibition, cell reporter; control for the full effect not named in the record; Potency, µM (top dose mostly 37.9 µM), inactives show at the highest dose activity change, negative = inhibition, usual class: inhibitors; active means well fitted inhibition curve with a large enough effect; inconclusive means small, poorly fitted or top-dose-only effect, or effect the other way; inactive means flat fitted curve, though single readings scatter; tested in HEK293 cells; also: % is scaled to controls: 0 for no effect and ±100 for the full control effect; nearly all actives have a fitted effect of over 50% in size; luciferase read-out
2A StopGo – FMDV 2A StopGo reporter, luciferase signal; human cells with a luciferase reporter of 2A StopGo recoding; control for the full effect not named in the record; 410,000 tested, 1.2% active; Potency, µM (doses to about 57.9 µM), for the others: at the highest dose signal change, negative = less light; AID 1159524; active = well fitted falling curve with a large enough effect; inconclusive = small, poorly fitted or top-dose-only effect; inactive = no such curve, though single readings can be large or run the other way; tested in HEK293T cells; also: % is scaled to controls: 0 for no effect and ±100 for the full control effect; nearly all actives have a fitted effect of over 45% in size; luciferase light after 4 h
SARS PLpro yeast – inhibitors of SARS-CoV papain-like protease in yeast | S. cerevisiae expressing SARS-CoV PLpro, growth rescue; control for the full effect not named in the record | 330,000 tested, 0.19% active | Potency, µM (top dose mostly 32.9 µM), for inactives: at the highest dose activity, positive = growth rescue | AID 485353; active means well fitted rising curve with a large enough effect; inconclusive means small, poorly fitted or top-dose-only effect; inactive means no such curve, though single readings can be large or run the other way; also: 0% is about no effect; nearly all actives have a fitted effect of over 55% in size; growth read by luminescence after 48 h
MARV entry inh – inhibitors of Marburg virus binding or cell entry; Marburg virus pseudotyped entry inhibition, cell reporter; control for the full effect not named in the record; about a third of the inactives were read at about 46 µM; Potency, µM (top dose mostly 37.8 µM), for the others: at the highest dose activity change, negative = inhibition, hits mostly inhibitors; 300,000 tested, 1.8% active; active = well fitted inhibition curve with a large enough effect; inconclusive = small, poorly fitted or top-dose-only effect, or effect the other way; inactive = flat fitted curve, though single readings scatter; tested in HEK293 cells; about a fifth of its hits are not listed in these tables; also: % is scaled to controls: 0 for no effect and ±100 for the full control effect; luciferase read-out
NS1 function inh – influenza NS1 inhibition; Potency, µM (highest dose often 46.1 µM), for inactives: at the top dose activity, positive = more growth; 270,000 tested, 0.4% active; S. cerevisiae slowed by influenza A NS1, growth recovery by OD600; active means well fitted rising curve with a large enough effect; inconclusive means small, poorly fitted or top-dose-only effect; inactive means no such curve, though single readings can be large or run the other way; also: nearly all actives have a fitted effect of over 50% in size
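Compounds were scored for reversing the slow growth caused by influenza A NS1 in S. cerevisiae, measured by optical density at 600 nm. Assay medium contained 2% galactose at pH 6.0; NS1-free yeast of the same strain were the positive control.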
RE007 growth inh – less growth of the S. pombe RE007 Vpr strain. Potency, µM (top dose mostly 92.2 µM), for the others: at the top dose activity change, negative = less growth. S. pombe RE007 Vpr strain, BacTiter-Glo ATP luminescence, 24 h; control for the full effect not named in the record. 360,000 tested, 0.21% active; active = well fitted falling curve with a large enough effect; inconclusive = small, poorly fitted or top-dose-only effect; inactive = no such curve, though single readings can be large or run the other way;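 also: % is scaled to controls: 0 for no effect and ±100 for the full control effect; nearly all actives have a fitted effect of over 50% in size; the assay follows cell death caused by Vpr and the record does not say whether a fall means rescue or toxicity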
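Fission yeast strain RE007, carrying one chromosomally integrated HIV-1 vpr copy, was seeded at OD 0.01 in PMG+AL medium with 23 nL pinned compound. After 24 h at 30 °C and 99% humidity, viability was read by BacTiter-Glo luminescence.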
Active calls of the source: *; u = inconclusive; x = no result given; & = joins results of further samples; [ ] = dose if it differs, or a comment. Unless noted, calls follow the shape of the dose curve; as a rule, active = well fitted curve in the direction sought with a large enough effect; inconclusive = small, poorly fitted or top-dose-only effect, or another doubt; inactive = no such curve, though single readings can be large; an effect the other way counts as inactive or inconclusive. Potency is read from the fitted curve at half-maximal effect.

Second line of a record: 2A StopGo | Lassa entry inh | NS1 function inh | RE007 growth inh | SARS PLpro yeast | Cruzain inh Det | Cruzain noTriton | MARV entry inh
1	CCOC(=O)CSc1nc(-c2ccccc2)nc2c1oc1ccccc12
 : -16% | -1% | -1% | 3% | -3% | -1.4% | -19% | -4%
2	Cn1c(N)c(C(=O)COC(=O)Cc2ccccc2F)c(=O)n(C)c1=O
 : 18% | 15%[46.1 µM] | x | 0% | 0% | x | x | -16%[46.1 µM]
3	COc1ccccc1NC(=O)CCCC(=O)OCC(F)(F)C(F)F
 : x | -19% | -13% | 0% | 4% | 1.3% | -5% | u
4	O=C(N/N=C/C=C/c1ccccc1)NC1CCCCC1
 : 6% | x | -50% | -3% | -2% | x | x | x
5	COc1cc(C=NO)nc(-c2ccccn2)c1
 : -8% | 1.3µM* | x | u | x | x | x | u
6	Cc1ccc(C(=O)Nc2ccc3ccccc3n2)cc1
 : -2% | u | -1% | -21% | 10% | x | x | u
7	O=C(NCc1ccccc1Cl)c1ccc(NC2=NC3CS(=O)(=O)CC3S2)cc1 (stereo not drawn)
 : 6% | x | -3% | 3% | -7% | x | x | x
8	CC(NS(=O)(=O)c1ccccc1)C(=O)NCCc1ccccn1 (stereo not drawn)
 : -10% | -25% | x | -3% | 1% | x | x | -5%[46.1 µM]
9	COc1ccccc1OS(=O)(=O)c1ccc(NC(C)=O)cc1
 : -19% | 7% | 0% | 2% | -1% | x | x | 18%[46.1 µM]
10	NC(=S)N/N=C/c1cn(-c2ccccc2)nc1-c1cccnc1
 : -7% | x | 2% | -14% | -1% | x | x | x
11	CCC(C)NCCCCOc1ccc(Cl)cc1C (stereo not drawn)
 : 0% | u | -9% | x | -11% | 0.7% | 0% | u
12	COc1cc(C(=O)NCC2CCCO2)ccc1OCc1ccc(Cl)cc1Cl (stereo not drawn)
 : -6% | u | x | 4% | 2% | x | x | -30%[46.1 µM]
13	Cc1cc(/C([O-])=C(/C(=S)Nc2ccc(F)cc2)[n+]2ccccc2)c(C)n1Cc1ccccc1Cl
 : -9% | 4% | x | -3% | -5% | x | x | 3%
14	Fc1ccc2nc(Nc3ccccc3)sc2c1
 : 45%[activator] | 13% | x | -18% | -2% | x | x | u
15	COc1ccccc1C(=O)Nc1ccc(N2CCCCC2)cc1
 : 5% | u | -59% | -15% | -3% | 3.8% | -1% | 7.9µM*
16	COc1cccc(/C=N/NC(=O)C(=O)N/N=C/c2cccc(OC)c2OC)c1OC
 : 1% | -1% | 18% | -5% | -17% | -4.6% | -25% | u
17	CN(CC1CCOCC1)C(=O)CC1C(=O)NCCN1Cc1cccc(C(F)(F)F)c1 (stereo not drawn)
 : 13% | x | 10% | -7% | 1% | x | x | x
18	Cc1ccc(C(=O)NC2=NCCS2)cc1Cl
 : 55%[activator] | u | -24% | -17% | -7% | x | x | 0%
19	CCCCn1c(N)c(N(CCOC)C(=O)CSc2nc3ccc(C)cc3[nH]2)c(=O)[nH]c1=O
 : 21% | -2% | -8% | -9% | -1% | -0.3% | 0% | 11%&11%[46.1 µM]
20	Cc1cc(C)c(NC(=O)C2CC3CCC2C3)c(C)c1 (stereo not drawn)
 : 31%[activator] | x | 10% | 3% | -1% | x | x | x
21	Cc1nn(Cc2ccc(C(=O)N3CCN(C(=O)c4ccco4)CC3)o2)c(C)c1[N+](=O)[O-]
 : 0% | 17% | 6% | -28% | 2% | x | x | 27%
22	COc1ccc(C(=O)NCCc2nnc(SCC(=O)Nc3ccccc3)n2C)cc1
 : 22% | 7% | -8% | -5% | 0% | 6.0% | -6% | u
23	CC(=O)c1c(C)n(Cc2ccccc2)c2ccc(O)cc12
 : u | x | 3% | -14% | 6% | x | x | x
24	CC(CC(=O)O)CC1=NS(=O)(=O)c2ccccc2N1 (stereo not drawn)
 : -5% | 0% | -5% | -6% | 0% | 5.9% | -4% | 2%
25	COc1cccc(OCCNCc2ccccc2)c1
 : 0% | -2% | -3% | -20% | 2% | x | x | -6%
26	O=C(ON=C1CCN(S(=O)(=O)c2ccccc2)CC1)c1ccccc1
 : 19% | 9% | -64% | 2% | -4% | -2.8% | -6% | 2%
27	CN(CC(=O)Nc1ccc(Cl)cc1)CC(=O)Nc1ccc(C(N)=O)cc1
 : u | 29%[46.1 µM] | 0% | 8% | 1% | x | x | -23%[46.1 µM]
28	CC(C(N)=O)N1C(=O)c2cccc3cccc1c23 (stereo not drawn)
 : 7% | 0% | 11% | 0% | -3% | -5.2% | 8% | 10%
29	O=C(CSc1nc(-c2cccc(F)c2)[nH]c1-c1ccccc1)Nc1ccc2c(c1)OCCO2
 : u | 10µM* | x | x | x | 3.0% | -21% | u
30	O=C(NCCN1CCOCC1)c1ccc(Cl)c(Cl)c1
 : -6% | -8%[46.1 µM] | 0% | -14% | 1% | x | x | 30%[46.1 µM]

A draw from above in order of number of heavy atoms, largest number first:
Second line of a record: 2A StopGo | Lassa entry inh | NS1 function inh | RE007 growth inh | SARS PLpro yeast | Cruzain inh Det | Cruzain noTriton | MARV entry inh
13	Cc1cc(/C([O-])=C(/C(=S)Nc2ccc(F)cc2)[n+]2ccccc2)c(C)n1Cc1ccccc1Cl
 : -9% | 4% | x | -3% | -5% | x | x | 3%
3	COc1ccccc1NC(=O)CCCC(=O)OCC(F)(F)C(F)F
 : x | -19% | -13% | 0% | 4% | 1.3% | -5% | u
10	NC(=S)N/N=C/c1cn(-c2ccccc2)nc1-c1cccnc1
 : -7% | x | 2% | -14% | -1% | x | x | x
25	COc1cccc(OCCNCc2ccccc2)c1
 : 0% | -2% | -3% | -20% | 2% | x | x | -6%

Further records follow:
Second line of a record: 2A StopGo | Lassa entry inh | NS1 function inh | RE007 growth inh | SARS PLpro yeast | Cruzain inh Det | Cruzain noTriton | MARV entry inh
31	CCCc1ccc(S(=O)(=O)N/N=C(/C)c2ccc3c(c2)OCO3)cc1
 : 0% | -1%[46.1 µM] | 0% | -11% | 3% | x | x | -15%[46.1 µM]
32	COCCn1nnnc1CN(CCc1ccccc1)Cc1cc2ccc(C)cc2[nH]c1=O
 : -24% | -17% | -13% | -16% | 7% | -9.1% | 16% | -25%&-25%
33	COC(=O)c1cc(COC(=O)c2nc3nccc(C)n3n2)oc1C
 : -13% | 30%[46.1 µM] | x | 5% | 0% | x | x | 10%[46.1 µM]
34	Cc1cccc(N(C(=O)c2csnn2)C(C(=O)NC(C)(C)C)c2cccs2)c1 (stereo not drawn)
 : x | 9% | 2% | 2% | 8% | -0.4% | 5% | -28%
35	C=CCn1c(SC)nnc1-c1ccc2ncccc2c1
 : -1% | -3%[46.1 µM] | 2% | -15% | -3% | x | x | 18%[46.1 µM]
36	Cc1c(Cl)cccc1NC(=O)CN1CCC(NC(=O)C2CCCCC2)CC1
 : x | 2% | 1% | 12% | 1% | -1.8% | 3% | 0%
37	CC(C)N(Cc1cn(C)nc1-c1cccc(Cl)c1)Cc1nccn1C
 : -19% | u | -1% | -3% | -1% | x | x | u
38	Cc1ccccc1C(=O)NC(NC(=S)Nc1ccc(S(N)(=O)=O)cc1)C(Cl)(Cl)Cl (stereo not drawn)
 : -19% | 3% | 13% | -1% | 5% | 13µM* | -27% | u
39	O=C(Nc1ccc(NC(=O)C2CCCCC2)nc1)c1cccc(F)c1
 : 0% | 15%[46.1 µM] | 2% | -2% | 15% | x | x | 4%[46.1 µM]
40	CCn1nnnc1-c1ccc(OC)c(S(=O)(=O)NCCc2ccccc2)c1
 : 87%[activator] | 21% | -7% | -14% | -2% | -3.0% | 7% | u
41	CC(NC(=O)c1cc2c(s1)CS(=O)(=O)C2)c1ccccc1 (stereo not drawn)
 : 2% | x | 10% | 4% | -5% | x | x | x
42	COC(=O)C(C)Oc1ccc(-c2nccc(-c3ccccn3)n2)cc1 (stereo not drawn)
 : 15% | 14%[46.1 µM] | -6% | -22% | 0% | x | x | u
43	COc1ccccc1NC(=O)CSc1nc2nccnc2c(=O)n1Cc1cccs1
 : -29% | x | 1% | 3% | 0% | x | x | x
44	COc1ccc(-c2cc(C)no2)cc1S(=O)(=O)NCc1ccco1
 : 69%[activator] | 15%[46.1 µM] | x | x | x | 4.3% | 0% | x
45	COc1ccccc1N1CCN(C(=O)CCCn2nc(C)c([N+](=O)[O-])c2C)CC1
 : u | -12%[46.1 µM] | -3% | 0% | 1% | x | x | 2%[46.1 µM]
46	Cc1cc(C)nc(SCc2nnc(SCC(=O)Nc3nccs3)n2Cc2ccco2)n1
 : 0% | 1% | -3% | 9% | 1% | 2.4% | 3% | 3%&3%
47	CC(=O)c1cccc(-n2c(CCC(=O)O)ccc2-c2ccc(C)cc2)c1
 : -8% | u | 2% | -9% | -1% | x | x | -2%
48	Cc1ccc(S(=O)(=O)NC(=O)Nc2nc(-c3ccc(F)c(F)c3)cs2)cc1
 : 56%[activator] | 10% | -36% | -13% | -2% | x | x | u
49	COCC(=O)Nc1ccc(Br)c(C)c1
 : 2% | -7%[46.1 µM] | 9% | 0% | 0% | x | x | 11%[46.1 µM]
50	CN(C)c1cccc(NC(=O)CCc2ccccc2)c1
 : 31%[activator] | 23% | 12% | -6% | -5% | -3.2% | -11% | 14%
51	COc1ccc(OCC(O)CNC(=O)c2ccccc2C(=O)O)cc1 (stereo not drawn)
 : 22% | -12% | -2% | -10% | 9% | 0.0% | 0% | 13%
52	CN(C)c1nc(N)nc(CSc2nnnn2-c2ccc(F)cc2)n1
 : -24% | -18% | -3% | 6% | -2% | 8.9% | -7% | 0%
53	COC(=O)c1ccc(Sc2ccccc2NS(=O)(=O)c2ccc(OC)cc2)nc1
 : 3% | -8% | -2% | 16% | -1% | 1.2% | -6% | x
54	CC1(C)CC(C(=O)Nc2ccccc2)C(=O)O1 (stereo not drawn)
 : 18% | 3% | x | -10% | x | x | x | 8%[46.1 µM]
55	COc1ccc(N2C(=O)NC(NS(=O)(=O)c3ccc(NC(C)=O)cc3)(C(F)(F)F)C2=O)cc1 (stereo not drawn)
 : -8%&-14% | 2% | 1% | -5% | -3% | x | x | 8%
